Compound activity: PubChem BioAssay, Broad Institute
Ecoli rRNA inh: inhibitors of bacterial rRNA selective over humanized ribosomes | 350,000 compounds, 1.6% hits | E. coli WT GFP vs humanized-ribosome RFP mutants, fluorescence, 24 h; hits give low values; DMSO median 0, no signal -100 | GFP signal change (wild-type ribosome), % (test concentration not listed);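 active = significant combined selectivity score with lowered wild-type GFP, culture density cut under 30%, mutant RFP and density less affected; inactive = any of these conditions unmet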; also: one replicate is shown; some compounds called inactive have numbers as strong as hits
FGF22 binding: shifts melting point of recombinant human FGF22. Q9HCT0. recombinant FGF22 thermal shift, SYPRO orange fluorescence; percent of sucrose octasulfate shift, DMSO zero. calls only at 9.99 µM. 340,000 compounds, 1.5% hits;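 active = melting point raised past a set limit in the mean and every replicate; inconclusive = no clear call; three in four hits are not shown here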
Target sequence (Q9HCT0 whole entry, looked up): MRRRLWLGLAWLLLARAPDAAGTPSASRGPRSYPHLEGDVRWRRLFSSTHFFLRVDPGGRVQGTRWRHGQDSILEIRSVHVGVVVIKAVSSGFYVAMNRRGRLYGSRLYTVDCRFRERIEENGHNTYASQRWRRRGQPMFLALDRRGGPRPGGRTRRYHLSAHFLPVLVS
MLL AF4-AF9 inh: MLL-AF4/AF9 protein interaction inhibition; 350,000 compounds, 0.47% hits; AlphaScreen, biotin-AF4 peptide binding to FLAG-AF9; inhibition, % at 10 µM; P42568;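 active = every replicate reaching a set inhibition limit, whatever the replicate mean, cut at about 25% in these data; inconclusive = mean inhibition reaches that limit but some replicates miss it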;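 also: 0% = plate neutral control median and 100% = total signal loss; the record names both 10 and 1 µM as test concentration; the first replicate is given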
Target sequence (P42568 whole entry, looked up): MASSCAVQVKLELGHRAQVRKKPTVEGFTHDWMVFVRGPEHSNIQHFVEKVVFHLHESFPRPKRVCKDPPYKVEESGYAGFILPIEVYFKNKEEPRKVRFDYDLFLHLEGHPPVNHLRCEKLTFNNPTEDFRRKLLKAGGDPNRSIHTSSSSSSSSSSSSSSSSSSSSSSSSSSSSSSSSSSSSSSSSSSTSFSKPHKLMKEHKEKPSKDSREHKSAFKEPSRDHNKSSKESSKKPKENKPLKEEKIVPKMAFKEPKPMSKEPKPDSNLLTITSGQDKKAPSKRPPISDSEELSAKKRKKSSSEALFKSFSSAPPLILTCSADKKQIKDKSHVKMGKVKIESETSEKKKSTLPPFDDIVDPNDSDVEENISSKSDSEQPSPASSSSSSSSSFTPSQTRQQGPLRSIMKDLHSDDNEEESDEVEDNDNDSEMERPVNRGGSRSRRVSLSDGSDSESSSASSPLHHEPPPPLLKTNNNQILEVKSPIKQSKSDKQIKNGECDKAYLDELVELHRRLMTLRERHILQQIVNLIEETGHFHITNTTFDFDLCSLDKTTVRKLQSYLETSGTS
Ecoli rRNA inh OD600: also measured in Ecoli rRNA inh; calls as there; OD600 change, %; measured here: OD600 growth;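 optical density of the mix in the first replicate; 0 = DMSO median and -100 = no signal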
Ecoli rRNA inh RFP: also measured in Ecoli rRNA inh; calls as there; RFP signal change, %; measured here: RFP humanized mutant strains;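 first replicate; 0 = DMSO median and -100 = no signal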
The depositor's hits bear a star; i = inactive; ? = inconclusive; + = active, no number; & = joins results of further samples. An excerpt; count on the stated rates, not on these rows.

SMILES	Ecoli rRNA inh	Ecoli rRNA inh OD600	Ecoli rRNA inh RFP	FGF22 binding	MLL AF4-AF9 inh
O=C1c2ccccc2-c2cc3ccccc3cc21	-4	-56	-9.3	i	0.2
Cc1cc2c(C(C)C)c(O)c(O)c(C=O)c2c(O)c1-c1c(C)cc2c(C(C)C)c(O)c(O)c(C=O)c2c1O	-7.7*	10*	2.6*	i	6.4
COc1cc2c(c(OC)c1O)-c1ccc(OC)c(=O)cc1C(NC(=O)C(F)(F)F)CC2 (stereo not drawn)	6	14	0.5	i	-1.6
COc1cccc2c1C(=O)c1c(O)c3c(c(O)c1C2=O)CC(O)(C(C)=NO)CC3OC1CC(N)C(O)C(C)O1 (stereo not drawn)	15	-77	42	i	?
O=C1NC(=O)C(Cc2ccccc2)(Cc2ccccc2)C(=O)N1Cc1ccccc1	-4	-13	-0.9	i	-66
COc1cccc(CN2CCN(c3ccc(F)cc3)CC2)c1OC	4	-9	-0.5	i	3.0
CN1[C@@H]2CCC[C@H]1CC(=O)C2	9	6	1.1	i	-4.5
C=CCCC[C@@H]1OC(=O)CNC(=O)C([C@@H](C)CC)NC(=O)[C@@H]2CCCN2C(=O)C([C@@H](C)CC)OC(=O)[C@H](Cc2ccccc2)N(C)C(=O)[C@H](C(C)C)NC(=O)C1(C)C (stereo partly drawn)	15	19	-0.8	i	6.4
COc1ccc(-n2nnnc2C(c2ccnc3ccccc23)N2CCC3(CC2)C(=O)NCN3c2ccccc2)cc1 (stereo not drawn)	9	7	1.6	i	5.0
CCOC(=O)[C@]12Cc3cc(OC)ccc3[C@H]1N(CC(=O)OC)C(=O)c1ccccc12	-1	4	0.4	i	0.1
N#Cc1cccc(-c2ccc([C@@H]3[C@H](CO)N4CCCCN(C(=O)Cc5cccnc5)C[C@@H]34)cc2)c1	-1	4	0.1	i	0.8
COC(=O)[C@@H]1[C@@H](CO)[C@@H]2Cn3c(ccc(-c4cccc(F)c4)c3=O)[C@H]1N2Cc1ccncc1	-2	2	0.0	i	0.4
COc1ccc(-n2c(-c3ccccc3F)nc3ccccc3c2=O)cc1	4	-2	-1.2	i	0.8
N#Cc1cccc(-c2ccc([C@H]3[C@H]4CN(C(=O)Cc5cccnc5)CCCCN4[C@H]3CO)cc2)c1	-3	7	-0.4	i	-3.4
O=C(Cc1ccccn1)N1CCCCN2[C@H](C1)[C@@H](c1ccc(Br)cc1)[C@@H]2CO	-2	-4	1.6	i	-4.5
Clc1cccc(N2Cc3cc(-c4ccccc4)ccc3-n3nncc3C2)c1	-5	-4	1.0	i	0.8
CN1CC[C@@]2(C)c3cc(O)ccc3N(C)[C@@H]12	-4	15	-1.1	i	?
O=C(Cc1ccccn1)N1CCCCN2[C@@H](CO)[C@@H](c3ccc(-c4ccccc4)cc3)[C@@H]2C1	3	12	2.3	i	-1.9
COc1cccc(C(c2nnnn2-c2ccc3c(c2)OCCO3)N2CCC3(CC2)C(=O)NCN3c2ccccc2)c1OC (stereo not drawn)	-5	0	1.1	i	4.4
O=C(NCC1=C(c2cccc3ccccc23)C[C@@H]2CC[C@H]1N2Cc1ccco1)c1cccnc1	1	-2	0.8	i	3.0
COc1ccc(C(c2nnnn2C2CCCC2)N2CCC3(CC2)C(=O)NCN3c2ccccc2)cc1 (stereo not drawn)	14	15	-1.1	i	6.9
COc1ccc(-c2ccc3c(c2)CN(CC(C)C)Cc2cnnn2-3)cc1	-40	-73	-7.6	i	2.1
COc1ccc(-n2nnnc2C(c2cccs2)N2CCC(n3c(=O)[nH]c4ccccc43)CC2)cc1 (stereo not drawn)	-12	-10	5.7	i	1.3
C=CCCC1(C(C)C)C(=O)NC(=S)NC1=O	-3	1	1.9	i	-2.6
C=C(C)C1(CCCC)C(=O)NC(=S)NC1=O	-2	-4	-3.7	i	0.5
COc1ccc(-n2nnnc2C(c2ccccc2)N2CCC(n3c(=O)[nH]c4ccccc43)CC2)cc1 (stereo not drawn)	-4	-11	7.3	i	6.2
CN1[C@H](CO)[C@H]2c3ccccc3NC[C@H]21	5	8	-0.6	i	-2.1
CN1C(=O)C(C2CCCCC2)C(=O)N(C)C1=O	5	15	-4.1	i	0.9
CN1Cc2cnnn2-c2ccccc2C1c1ccccc1 (stereo not drawn)	-1	-2	2.5	i	-1.1
C[C@@H]1CN([C@H](C)CO)C(=O)CCCn2nncc2CO[C@@H]1CN(C)C(=O)Oc1ccccc1	12&3	4&6	-2.0&-5.6	i	0.1&1.2&-1.8
COc1ccc(C(=O)N2Cc3cnnn3-c3ccccc3C2C#N)cc1 (stereo not drawn)	13	13	2.6	i	-0.9
CN(C)CC#Cc1ccc([C@@H]2[C@@H](CO)N3CCCCN(C(=O)Cc4ccccn4)C[C@@H]23)cc1	5	10	1.4	i	3.3
COC(=O)[C@@H]1[C@@H](CO)[C@@H]2Cn3c(ccc(-c4ccc(F)cc4)c3=O)[C@H]1N2Cc1ccccc1	-1	-2	3.9	i	2.7
COC(=O)[C@H]1[C@H](CO)[C@H]2Cn3c(ccc(-c4ccccc4F)c3=O)[C@@H]1N2CC1CCCC1	-3	-9	3.5	i	1.1
CCOC(=O)[C@]12Cc3cc(OC)ccc3[C@H]1N(Cc1ccccc1)C(=O)c1cc(OC)ccc12	0	17	3.4	i	-1.2
COc1ccccc1N1CCN(CCc2c[nH]c3cc4c(cc23)OCO4)CC1	4	-1	-1.4	i	30*
COc1ccc(C#Cc2ccc([C@@H]3[C@H](CO)N4CCCCN(C(=O)Cc5ccncc5)C[C@@H]34)cc2)cc1	5	-31	15	i	0.3
CN(C)C(=O)[C@@H]1[C@@H](CO)[C@@H]2Cn3c(cccc3=O)[C@H]1N2CC1CC1	4	-3	-4.8	i	-4.7
CCC(=O)N1[C@@H]2c3ccc(C4=CCCC4)c(=O)n3C[C@H]1[C@H](CO)[C@H]2C(=O)OC	1	12	1.0	i	6.1
O=C(Cc1ccccc1)N1CCCCN2[C@H](CO)[C@H](c3ccc(C#CC4(O)CCCC4)cc3)[C@H]2C1	0	3	-0.4	i	-5.8

Part of the list above in order of length of the SMILES, falling.
SMILES	Ecoli rRNA inh	Ecoli rRNA inh OD600	Ecoli rRNA inh RFP	FGF22 binding	MLL AF4-AF9 inh
COc1ccc(C#Cc2ccc([C@@H]3[C@H](CO)N4CCCCN(C(=O)Cc5ccncc5)C[C@@H]34)cc2)cc1	5	-31	15	i	0.3
CCC(=O)N1[C@@H]2c3ccc(C4=CCCC4)c(=O)n3C[C@H]1[C@H](CO)[C@H]2C(=O)OC	1	12	1.0	i	6.1
CN(C)C(=O)[C@@H]1[C@@H](CO)[C@@H]2Cn3c(cccc3=O)[C@H]1N2CC1CC1	4	-3	-4.8	i	-4.7
COc1ccccc1N1CCN(CCc2c[nH]c3cc4c(cc23)OCO4)CC1	4	-1	-1.4	i	30*
COc1ccc(C(=O)N2Cc3cnnn3-c3ccccc3C2C#N)cc1 (stereo not drawn)	13	13	2.6	i	-0.9

Carrying on:
SMILES	Ecoli rRNA inh	Ecoli rRNA inh OD600	Ecoli rRNA inh RFP	FGF22 binding	MLL AF4-AF9 inh
Cn1cc2c([N+](=O)[O-])cc([N+](=O)[O-])cc2n1	37	8	6.5	i	-1.5
Cc1ccc(OC(=O)N(C)C[C@@H]2OCc3ccccc3-c3c(n(C)c4ccccc34)C(=O)N([C@H](C)CO)C[C@@H]2C)cc1	2	24	-5.6	i	5.4
O=C(Cc1ccccc1)N1CCCCN2[C@@H](CO)[C@H](c3ccc(C#CC4(O)CCCC4)cc3)[C@@H]2C1	-2	-4	-1.3	i	-1.8
Cc1cccc(OCC(O)CN2CC2)c1 (stereo not drawn)	3	-5	6.2	i	10
COc1ccc(-c2ccc3c(c2)CN(C(=O)CCc2ccccc2)Cc2cnnn2-3)cc1	-13	-13	-1.7	i	-4.0
Nc1ccc(CC(N)c2csc(Nc3ncccn3)n2)cc1 (stereo not drawn)	1	17	-0.4	i	14
O=C(Cc1ccccn1)N1CCCCN2[C@H](CO)[C@H](c3ccc(Br)cc3)[C@@H]2C1	3	14	7.4	i	-0.8
Cc1ccc(OC(=O)N(C)C[C@@H]2OCc3ccccc3-c3c(n(C)c4ccccc34)C(=O)N([C@@H](C)CO)C[C@@H]2C)cc1	-4	7	1.3	i	6.2
N#Cc1cccc(-c2ccc([C@H]3[C@@H](CO)N4CCCCN(C(=O)Cc5cccnc5)C[C@H]34)cc2)c1	-4	-6	4.9	i	-4.5
O=C(Cc1ccccn1)N1CCCCN2[C@H](CO)[C@@H](c3ccc(Br)cc3)[C@H]2C1	4	11	-6.2	i	-6.4
O=C(Cc1ccncc1)N1CCCCN2[C@H](CO)[C@@H](c3ccc(-c4ccncc4)cc3)[C@H]2C1	6	12	-0.2	i	-3.8
O=C1NCN(c2ccccc2)C12CCN(C(c1ccccc1OC(F)(F)F)c1nnnn1C1CCCCC1)CC2 (stereo not drawn)	16	13	2.6	i	4.6
COC(=O)C1=C(c2ccc(OC(F)(F)F)cc2)C[C@@H]2CC[C@H]1N2C(=O)N1CCc2cc(OC)c(OC)cc2C1	-20	-16	1.0	i	5.3
CC12C(C(=O)O)C1(c1ccccc1)C2C(=O)O (stereo not drawn)	9	14	-5.0	i	-1.3
CCCCn1nnnc1C(c1ccccc1)N1CCC2(CC1)C(=O)NCN2c1ccccc1 (stereo not drawn)	5	4	1.3	i	2.8
O=C1CNC[C@@H]2[C@@H](c3ccc(Br)cc3)[C@@H](CO)N12	1	-1	-1.2	i	-4.4
O=C(COC(=O)c1cc(Br)cc(Br)c1O)NC12CC3CC(CC(C3)C1)C2	-16	-15	-2.1	+	0.0
CCCCn1nnnc1C(c1ccc(OC)cc1)N1CCC2(CC1)C(=O)NCN2c1ccccc1 (stereo not drawn)	-22	-30	-2.5	i	2.7
COc1ccc(C(O)(c2ccccc2)c2ccncc2)cc1 (stereo not drawn)	10	7	3.9	i	1.0
O=C(NCCN1CCC2(CC1)C(=O)NCN2c1ccccc1)c1ccccc1F	14	4	2.1	i	1.8
c1ccc2c(c1)CNCc1cnnn1-2	12	3	0.2	i	-3.2
COc1ccc(-c2ccc3n(c2=O)C[C@@H]2[C@@H](CO)[C@H](C(=O)O)[C@H]3N2C(=O)c2ccccc2F)cc1	2	7	-2.2	i	-0.4
CC(C)S(=O)(=O)N1Cc2ccccc2-n2nncc2C1	10	13	-2.1	i	-3.5
FC(F)(F)c1ccc(-c2ccc3c(c2)CNCc2cnnn2-3)cc1	8	20	-2.7	i	-1.8
COC(=O)[C@H]1[C@H](CO)[C@H]2Cn3c(ccc(-c4ccc(F)cc4)c3=O)[C@@H]1N2Cc1cccnc1	0	2	0.1	i	0.4
COc1cccc(-c2ccc([C@@H]3[C@H](CO)N4CCCCN(C(=O)Cc5ccncc5)C[C@@H]34)cc2)c1	-3	1	3.3	i	-6.4
O=C(Cc1ccccc1)N1CCCCN2[C@H](C1)[C@H](c1ccc(C#CC3(O)CCCC3)cc1)[C@@H]2CO	0	-6	-2.1	i	-3.6

Complete entries from above:
COc1ccc(-c2ccc3n(c2=O)C[C@@H]2[C@@H](CO)[C@H](C(=O)O)[C@H]3N2C(=O)c2ccccc2F)cc1 as listed: Ecoli rRNA inh = 2; Ecoli rRNA inh OD600 = 7; Ecoli rRNA inh RFP = -2.2; FGF22 binding = i; MLL AF4-AF9 inh = -0.4
FC(F)(F)c1ccc(-c2ccc3c(c2)CNCc2cnnn2-3)cc1 as listed: Ecoli rRNA inh = 8; Ecoli rRNA inh OD600 = 20; Ecoli rRNA inh RFP = -2.7; FGF22 binding = i; MLL AF4-AF9 inh = -1.8
